# Screening results (PubChem)
# MgrA-DNA mod – S. aureus MgrA-DNA binding modulation; hit rate 0.13% among 84,000; inhibition, %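 (about 10 µg/mL by stock and volumes)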; fluorescence polarization; AID 602314;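 active means above 50% in either of two replicates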;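 further: 0% = protein plus DNA without compound and 100% = DNA alone without protein; higher means less MgrA bound to DNA so lower polarization; one replicate is shown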
# Sa helicase inh – blocks Staphylococcus aureus DNA helicase. purified S. aureus helicase, fluorescence unwinding assay; about half of the hits fall short of the stated cut. inhibition, %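 (tested at about 80 µM)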. hit rate 0.05% among 120,000. AID 485395;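 active means both duplicates at 50% or more, or one of them with a favoured structure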;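 further: 0% = mean of negative control wells and 100% = mean of positive control wells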
# * hit, by the source's call; . = no result given; & = joins results of further samples.
compound	MgrA-DNA mod	Sa helicase inh
Cc1ccc(N2C(=O)c3cccnc3C2Nc2ccc(S(=O)(=O)N3CCOCC3)cc2)cc1 (centres undefined)	.	9.0
CC1CCCCN1C(=O)CSc1nnc(COc2ccc(Cl)cc2)o1 (centres undefined)	.	5.0&16.0
CCC1CCCCN1C(=O)CSc1nc(C)cc(C)n1 (centres undefined)	-0.4	-12.0
CC(=O)OCN1C(=O)N(C)C2C1N(C)C(=O)N2COC(C)=O (centres undefined)	.	27.0
CS(=O)(=O)Nc1ccc(-c2csc(-c3ccccc3)n2)cc1	.	4.0
N#CCCn1c(=O)oc2cc(Br)ccc21	1.4	1.0
Cc1noc(C)c1C(=O)Nc1nnc(SCc2ccc(Cl)cc2)s1	.	4.0
NNC(=O)CC(=O)Nc1nc2ccccc2s1	.	1.0
Cc1nnc(SC2CCOC2=O)n1C1CCCCC1 (centres undefined)	.	-7.0
Cc1cc(=O)oc2cc(OC(=O)c3cncc(Br)c3)ccc12	.	-5.0
CC1CCN(C(=O)C2=NN(C3CCS(=O)(=O)C3)C(=O)CC2)CC1 (centres undefined)	.	3.0
COc1cccc(NC(=O)c2ccnc(N3CCC(C(=O)O)CC3)c2)c1	8.4	2.0
CN(C1CCCCC1)S(=O)(=O)c1cc(Cl)ccc1Cl	-2.8	8.0
CCCOc1ccc(C(=O)N2CCCC2)cc1	-0.2	-5.0
COc1cc(NS(=O)(=O)c2ccc(NC(=O)c3cccnc3)cc2)ncn1	0.0	2.0
CC(C)(C)c1ccc(C(=O)Nc2sccc2C(N)=O)cc1	.	10.0
C=CCNC(=S)N/N=C1\CCS(=O)(=O)c2ccccc21	.	-9.0
COCc1cc(N2CCCCC2)nc(-c2csc(C)n2)n1	-2.0	.
CCOc1ccc2c(c1)[nH]c(=S)n2C	12.4	18.0
Cc1ccccc1NS(=O)(=O)c1ccc(C(=O)NN2C(=O)NC3(CCCCC3)C2=O)cc1	.	11.0
O=C(NCc1ccc2c(c1)OCO2)c1cnn(-c2cccc(F)c2)c1-n1cccc1	.	-1.0
CCc1nc(N)ncc1-c1nnnn1-c1ccc(C)cc1	.	11.0
CCCN(Cc1nnc(-c2ccccc2Cl)o1)C(=O)Cc1coc2cc(OC)ccc12	.	12.0
CSc1ncccc1C(N)=O	0.2	.
Cc1ccc(C(=O)N2C(=O)C(c3ccccc3)Oc3ccccc32)cc1 (centres undefined)	1.5	6.0
CCc1ccccc1NC(=O)CC(NCc1ccccc1)C(=O)O (centres undefined)	.	-4.0
CC1=C(C(=O)OCC(C)C)C(c2cc3c(cc2Br)OCO3)NC(=O)N1 (centres undefined)	-1.4	.
CCN=C(NCC)SC1CC(=O)N(CCc2ccccc2)C1=O (centres undefined)	-1.2	20.0
CS(=O)c1sc(C#N)c2c1C(=O)CC(C)(C)C2 (centres undefined)	1.8	.
O=C(COc1ccccc1O)NCc1ccccc1Cl	4.3	.
CCCC(=O)Nc1nc(-c2ccc(Cl)s2)cs1	.	6.0
CC(C)COc1ccccc1OCC(C)C	0.6	4.0
Cn1nc(C(=O)Nc2cccnc2)c2c1-c1ccccc1SC2	6.2	11.0
CN1C(=O)N(C)C(=O)C(CC(=O)N2CCCCC2)(CC(=O)N2CCCCC2)C1=O	-3.5	5.0
CC1Cc2ccccc2N1S(=O)(=O)/C=C/c1ccccc1 (centres undefined)	.	9.0
Cc1ccccc1OCc1nnc2c3cnn(Cc4ccccc4)c3ncn12	1.8	1.0

# Pulled by structure from the list above:
compound	MgrA-DNA mod	Sa helicase inh
Cc1ccc(C(=O)N2C(=O)C(c3ccccc3)Oc3ccccc32)cc1 (centres undefined)	1.5	6.0
CCN=C(NCC)SC1CC(=O)N(CCc2ccccc2)C1=O (centres undefined)	-1.2	20.0

# (next part)
compound	MgrA-DNA mod	Sa helicase inh
CC(=O)Nc1ccc(S(=O)(=O)N2CCCCC2)cc1	-2.9	2.0
COc1ccc(C2=NN(C(=O)CN3CCCCC3)C(c3ccc(OC)cc3)C2)cc1 (centres undefined)	.	21.0
CC(C)N1C(=O)C2ON(c3ccc(Cl)cc3)C(c3ccccc3)C2C1=O (centres undefined)	.	14.0
O=C(O)CN=Cc1ccccc1O	4.1	-4.0
CCCC(C(=O)O)N1C(=O)/C(=C/c2ccc[nH]2)SC1=S (centres undefined)	.	3.0
CCOC(=O)c1cc2sccc2n1Cc1ccccc1	-1.5	-3.0
Cc1noc2ncn(CC(=O)NC3CC3)c(=O)c12	.	-9.0
CSc1nnc(Cc2ccccc2)n1-c1ccc(C)cc1	5.5	-2.0
O=C(O)C1=Cc2cc(Cl)ccc2OC1	10.4	.
CCn1c2c(c(=O)[nH]c1=O)C(c1ccc(C)cc1)C1=C(CC(C)(C)CC1=O)N2 (centres undefined)	.	5.0
O=C1CCc2cc(S(=O)(=O)NC(C(=O)NCc3ccccc3)c3ccccc3)ccc2N1 (centres undefined)	.	-13.0
O=C(CSc1ncccn1)NC1CCCc2ccccc21 (centres undefined)	.	0.0
C=CCNc1nc(C(C)C)nc2c1nnn2Cc1ccccc1	-2.0	6.0
CCOc1ccccc1-n1nnnc1SCC(=O)c1cc(Cl)ccc1OC	17.9	1.0
c1ccc(Cc2nn3c(Cn4cnc5ccccc54)nnc3s2)cc1	10.2	5.0
Cc1nnc(SCC(=O)c2ccc(O)c(O)c2)s1	2.7	14.0
O=C(CSC1=NCCS1)Nc1ccc(Cl)cn1	0.9	7.0
c1ccc(N(c2ccccc2)c2nc(N3CCCCC3)nc(N3CCOCC3)n2)cc1	.	6.0
COc1ccc(OCCS(=O)(=O)c2nc3ccccc3[nH]2)cc1	.	8.0
CCN(c1cccc(C)c1)c1ncnc2nc[nH]c12	.	14.0
CC1=N/C(=C/c2cccnc2)C(=O)O1	6.0	-3.0
Cc1cc(=O)c2c(ccc3c[nH][nH]c32)n1	-0.9	.
CC(Oc1ccc(Br)cc1)C(=O)NCc1ccncc1 (centres undefined)	0.8	9.0
CCOC(=O)Cn1c(=O)c(-c2cc(Br)ccc2N)nc2ccccc21	1.6	.
CCCC(=O)Oc1ccccc1NS(=O)(=O)c1ccccc1	.	7.0
Cc1c(C(=O)O)oc2ccc(S(=O)(=O)N3CCC(C)CC3)cc12	.	-7.0
N=C1Cc2ccccc2N1CC(=O)c1ccc(Br)cc1	.	13.0
Cc1[nH][nH]c(=O)c1C1(C(C#N)C#N)C2CC3CC(C2)CC1C3 (centres undefined)	2.7	1.0
CC(C)Sc1nnc(NC(=O)c2ccccc2C(F)(F)F)s1	.	20.0
CC1=N/C(=C/c2cc(Br)cc(Br)c2O)C(=O)O1	-3.0	.
O=C(O)c1ccc(-n2cccc2)cc1O	-6.2	-8.0
Cc1ccc(C2CC(=O)NC(SCC(=O)OC(C)C)=C2C#N)cc1 (centres undefined)	-1.8	0.0
CC(=O)N1CCN(S(=O)(=O)c2cccc(C(=O)NC(C)c3ccc(S(N)(=O)=O)cc3)c2)CC1 (centres undefined)	.	-8.0
COc1ccc(CCNC(N)=O)cc1OC	.	-3.0
CCN(CC)S(=O)(=O)c1ccc2nc(COC(=O)c3n[nH]c4ccccc34)[nH]c2c1	.	-18.0
CC(=O)Nc1ccc(C)c(NC(=S)Nc2ccc(Cl)cc2C)c1	-0.2	.
CC(C)N(C(=O)c1ccc2ccccc2c1)C(C)C	0.6	7.0
CC1CCCN(S(=O)(=O)c2ccc3[nH]c(=O)cc(C(=O)O)c3c2)C1 (centres undefined)	.	9.0
O=C(O)/C=C1\OC(=O)c2ccccc21	0.1	.
COc1ccc2[nH]c(C)c(CCN(Cc3cccs3)C(=S)NC3CCCCC3)c2c1	0.8	7.0
O=C(COC(=O)C1CC(=O)N(CCc2ccccc2)C1)c1ccc[nH]1 (centres undefined)	.	-13.0
O=C(c1oc(=O)c2ccccc2c1-c1ccccc1)N1CCCN(Cc2ccc(F)cc2)C1	0.2	4.0
CCN(C(=O)Cn1c(=O)n(CC)c(=O)c2ccccc21)c1ccccc1	1.4	-7.0
Cc1cc(O)c(C(=O)Nc2ccc(Cl)c(Cl)c2)c(=O)n1C	.	-10.0
COc1ccc2[nH]cc(C(=O)CSc3nnc(-c4ccoc4)c(-c4ccoc4)n3)c2c1	21.5	5.0
C=CC1(C)OCO/C1=C\C[N+](C)(C)C (centres undefined)	-1.9	12.0
O=C(c1ccco1)N1CCN(c2c(Cl)cncc2Cl)CC1	-1.5	.
Clc1ccc2oc(-c3ccccc3)cc(=NCc3ccco3)c2c1	-2.5	6.0

# Continued.
# Each structure is followed by: MgrA-DNA mod, Sa helicase inh
O=c1onc(-c2cnccc2C(F)(F)F)n1-c1ccccc1Cl
    1.5, .
CCSc1nnc(C2CCCN(C(=O)C3CCC(OC)CC3)C2)n1C (centres undefined)
    -0.6, 3.0
CC(=O)N/C(=C/c1ccccc1Br)C(=O)NC1CCCCCC1
    -0.3, 10.0
Cc1ccc(N2C(=O)NC(=O)/C(=C\c3ccc(O)c(Br)c3)C2=O)cc1
    14.5, .
O=S(=O)(CCN1CCSCC1)c1ccccc1
    -0.8, .
COc1cc(OC)cc(C(=O)N2CCc3ccccc32)c1
    -0.1, 3.0
Cc1ccc2nc(C(F)(F)F)cc(OC(C)C)c2c1
    -1.6, .
O=C(N/N=C/c1cccs1)c1cccnc1
    3.2, .
CCCNC(=O)c1ccc(S(=O)(=O)N(C)c2ccccc2)cc1
    -1.2, 2.0
Cc1cc(N2C(=O)Nc3ccccc3N2O)no1
    1.1, 3.0
COc1ccc(NC(=O)C2Cc3ccccc3CN2C(=O)c2ccccc2)cc1 (centres undefined)
    1.1, 17.0
Oc1ccc(CCc2n[nH]c(=S)n2-c2ccc(Cl)cc2)cc1
    1.6, .
COc1cc(Cl)cc(C(=O)O)c1O
    -1.8, 2.0
COc1ccc(C2CC(=O)N(c3ccccc3)C3=C2C(=O)CCC3)c(OC)c1 (centres undefined)
    1.1, -5.0
N#CC(=NCCC1=CCCCC1)C1=C(O)c2ccccc2C1=O
    -0.9, .
O=C(NCc1ccco1)C(c1ccccc1)c1ccccc1
    -2.5, 8.0
N#CCC(=O)Nc1cccc2ncccc12
    ., 4.0
Cc1ccc(Nc2nc(C3(C)CC(C(C)C)C(=O)O3)cs2)cc1 (centres undefined)
    1.4, 13.0
CC(CCc1ccccc1)NC(=O)CSc1ccccn1 (centres undefined)
    4.6, -2.0
O=C(NCCc1ccccc1)C1CCCN1C(=O)Nc1ccccc1 (centres undefined)
    -1.9, 5.0
CN(C(=O)c1cc2sccc2n1C)C1CCCCC1
    -0.2, -2.0
CN(C(=O)CSc1nc(N)c(NC(=O)c2ccccc2)c(=O)[nH]1)c1ccccc1
    ., 6.0
c1ccc(CNc2nc(NCc3ccco3)nc(N3CCOCC3)n2)cc1
    -1.0, .
OCc1nc(-c2ccc(Cl)cc2)n2ccccc12
    ., 5.0
C=CCn1c(-c2ccccc2Cl)nc2ccccc21
    0.1, 14.0
CC(=O)Oc1ccccc1C(=O)N(c1ccccc1)C(C)C1CC1 (centres undefined)
    -0.7, 11.0
Cc1nn(-c2ccccc2)c2sc(C(=O)n3cccn3)cc12
    ., 0.0
Cc1ccc(C)c(CNC(=O)c2nc3c(nnn3CC3CCCO3)c(=O)[nH]2)c1 (centres undefined)
    ., 21.0
Cn1c(=O)[nH]c(=O)c2c1[nH]c(=S)n2CC(O)COc1ccc2ccccc2c1 (centres undefined)
    5.0, 5.0
CC(=O)Nc1ccc(C)c([N+](=O)[O-])c1
    2.4, .
CCN(CC)c1ccc(C=C2C(=O)c3ccccc3C2=O)c(OC)c1
    22.4, -97.0
CCOC(=O)C1CCN(C(=O)c2sc(-c3ccc4c(c3)CCO4)nc2C)CC1
    -2.3, .
CC1(C(=O)O)NCCc2c1[nH]c1ccccc21 (centres undefined)
    ., -7.0
COc1cc(-c2nnc(COC(=O)[C@H](C(C)C)N3C(=O)c4ccccc4C3=O)o2)cc(OC)c1OC
    ., 23.0
Clc1ccc(SCc2cn3ccsc3n2)cc1
    ., 8.0
Cc1cc(NC(=O)COC(=O)C2CCCCC2)no1
    ., -11.0
Cc1cccc(C(=O)OCCN2C(=O)c3cccc4c(N5CCOCC5)ccc(c34)C2=O)c1
    1.0, .
CCN(CC)C(=O)CP(=O)(c1ccccc1)c1ccccc1
    -2.9, 20.0
COc1cc(N=Nc2c(Cl)cc([N+](=O)[O-])cc2[N+](=O)[O-])c(NC(C)=O)cc1N(CCO)CCC#N
    0.6, .
COc1ccc(S(N)(=O)=O)cc1-c1nnc2c3ccccc3c(C)nn12
    -0.6, -5.0
O=C(CSc1nnc2ccccn12)NC(=O)Cc1ccccc1
    ., 7.0
COc1ccc(Cl)cc1NC(=O)/C=C/c1cccs1
    -2.0, -16.0
COC(=O)c1sc(-c2ccc(Cl)cc2)cc1NC(=O)c1cc(C)nn1C
    0.2, .
NC(=O)c1ccccc1OCCCN1CCN(c2ccccc2)CC1
    0.2, .
CCCCNC(=O)c1ccc(NC(C)=O)cc1
    ., -13.0
CNC(=O)COc1ccc(Nc2nnc(-c3ccc(C)cc3)c3ccccc23)cc1
    0.9, 6.0
CCCc1nc2c(sc3nc4c(cc32)COC(C)(C)C4)c(=O)n1N
    -3.9, 0.0

# 6 of the entries above in order of the MgrA-DNA mod value, falling:
# Each structure is followed by: MgrA-DNA mod, Sa helicase inh
CNC(=O)COc1ccc(Nc2nnc(-c3ccc(C)cc3)c3ccccc23)cc1
    0.9, 6.0
COc1cc(N=Nc2c(Cl)cc([N+](=O)[O-])cc2[N+](=O)[O-])c(NC(C)=O)cc1N(CCO)CCC#N
    0.6, .
NC(=O)c1ccccc1OCCCN1CCN(c2ccccc2)CC1
    0.2, .
CCOC(=O)C1CCN(C(=O)c2sc(-c3ccc4c(c3)CCO4)nc2C)CC1
    -2.3, .
CCN(CC)C(=O)CP(=O)(c1ccccc1)c1ccccc1
    -2.9, 20.0
CCCc1nc2c(sc3nc4c(cc32)COC(C)(C)C4)c(=O)n1N
    -3.9, 0.0

# Only part of the results is shown. The share of hits here may be higher or lower than overall.
